# Source: PubChem BioAssay
# PINK1 modulator: PINK1 expression modulation | PINK1 immunofluorescence, high-content cytometry, 24 h | Potency, µM (highest dose often 76.6 µM), for the others: top-dose activation (PINK1 increase), most hits filed as activators | 410,000 compounds, 0.2% hits; active = well fitted activation curve with a large enough effect; inconclusive = small, poorly fitted or top-dose-only effect; inactive = flat fitted curve, though single readings scatter; cell line not stated here;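 further: potency means the concentration at half of the fitted maximal effect; % of control where 0% means no effect; nearly all actives have a fitted effect of over 65% in size; a mitochondrial uncoupler was the plate control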
#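 Decision-based qHTS: stable cells, 24 h exposure to five compound concentrations, CCCP as control. Fixed cells stained for PINK1 plus nuclear, mitochondrial and cell markers, cytometer read.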
# CtBP-E1A blk: CtBP/E1A binding inhibition | 340,000 compounds, 0.49% hits | AlphaScreen GST-E1A/His-CtBP binding, 1536-well; active compounds read low; control for the full effect not named in the record | activity change, % (concentration not given with the values) | AID 651724; in the data active means activity change below about -65%; inconclusive means about -30% to -65%; inactive means above about -30%; further: on the % scale 0 is the no-effect control and ±100 the full control effect
#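 Protein mix (5X: 125 nM each GST-E1A, His-CtBP) was incubated with pinned compound 2 h at 37 deg C in dark, in 50 mM Tris pH 8.0 buffer with 300 mM NaCl. Glutathione donor and nickel acceptor beads followed; AlphaScreen signal read after 1 h.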
# D2 PAM: positive allosteric modulators of human D2 dopamine receptor | DiscoveRx D2 beta-arrestin cells, luminescence, 90 min; 100% = 57 uM dopamine signal | potentiation, % (no concentration beside the values) | 360,000 compounds, 0.23% hits; active = potentiation of 50% or more; inconclusive = 30% to 50%; inactive = 30% or less;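 further: compound concentration not given in the record; tested on top of an EC20 dose of dopamine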
# Target sequence (P14416 whole entry, looked up): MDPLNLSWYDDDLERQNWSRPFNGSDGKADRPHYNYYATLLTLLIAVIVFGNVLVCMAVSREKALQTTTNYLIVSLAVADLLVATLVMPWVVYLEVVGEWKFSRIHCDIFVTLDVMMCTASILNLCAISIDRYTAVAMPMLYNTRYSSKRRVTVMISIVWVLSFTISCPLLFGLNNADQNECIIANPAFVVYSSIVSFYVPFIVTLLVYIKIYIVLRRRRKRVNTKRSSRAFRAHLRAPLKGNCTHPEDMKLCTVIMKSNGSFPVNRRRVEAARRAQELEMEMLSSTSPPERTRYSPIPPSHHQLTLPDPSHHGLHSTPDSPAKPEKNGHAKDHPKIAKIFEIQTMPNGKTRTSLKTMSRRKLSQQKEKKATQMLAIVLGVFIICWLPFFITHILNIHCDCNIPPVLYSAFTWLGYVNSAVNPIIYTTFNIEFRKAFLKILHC
#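 PathHunter beta-arrestin assay in DiscoveRx D2 cells. Compounds were added with an EC20 of dopamine (50 nM final) for 90 min at 37 deg C. Luminescence was read 1 h after detection reagent, with 57 uM dopamine as the EC100 control.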
# Sfp PPTase inh: Sfp phosphopantetheinyl transferase inhibition | Q9F4F7 | Biochemical Sfp PPTase activity, qHTS | Potency, µM, inactives show max response, negative = inhibition, hits mostly inhibitors | 310,000 compounds, 3.5% hits; active means well fitted inhibition curve with a large enough effect; inconclusive means small, poorly fitted or top-dose-only effect, or another doubt; inactive means no such curve, though single readings can be large or run the other way;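 further: the enzyme is Sfp with the accession as filed and its product quenches rhodamine fluorescence; potency means the concentration at half of the fitted maximal effect; 0% = enzyme reaction without inhibitor and -100% = no enzyme wells; top concentration of the series not given in the record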
#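 Buffer: 50 mM Hepes-Na pH 7.6, 10 mM MgCl2, 0.01% Nonidet P-40, 0.01% BSA. Enzyme 15 nM, pre-exposed to compound 15 min; substrates then added and fluorescence change tracked over 30 min.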
# D2 agonist: agonists of human D2 dopamine receptor (beta-arrestin). DiscoveRx PathHunter D2 beta-arrestin, luminescence, 90 min; 100% = 57 uM dopamine signal. P14416. activation, % (test concentration not listed). 360,000 compounds, 0.084% hits; in the data active = activation above about 40%; inconclusive = about 15% to 40%; inactive = below about 15%; further: compound concentration not given in the record; the text of the record calls up to 30% inactive
#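 DiscoveRx PathHunter D2 beta-arrestin cells (2,100/well) attached overnight, then compound-stimulated 90 min at 37 C in HBSS/10 mM HEPES/0.1% Tween-20 buffer; beta-galactosidase complementation read by luminescence after 1 h at ambient temperature. Dopamine 57 uM final (EC100) as control.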
# TRPV1 PAM: human TRPV1 potentiation; Q8NER1; TRPV1-expressing cells, Fluo-8 calcium influx, capsaicin EC20 potentiation; host cell line not named in the record; control for the full effect not named in the record; potentiation, % at 8.33 µM; 320,000 compounds, 0.02% hits; active means potentiation above 80%; inconclusive means 30% to 80%; inactive means below 30%; further: 0% is about no effect
#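 Cells expressing TRPV1 were dye-loaded with Fluo-8 and read kinetically: 10 s baseline, 3 min after compound (agonist portion), then 2 min after EC20 capsaicin (allosteric enhancer portion). Calcium-bound dye fluorescence at 480/520 nm.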
# Six1-Eya2 inh: blocks human Six1 binding to Eya2 | Q15475+O00167 | AlphaScreen GST-Six1/His-Eya2 binding, biochemical; active compounds read low; control for the full effect not named in the record | activity change, % (test concentration not listed) | 360,000 compounds, 0.56% hits | AID 651725; in the data active = activity change below about -65%; inconclusive = about -30% to -65%; inactive = above about -30%; further: on the % scale 0 is the no-effect control and ±100 the full control effect
#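 AlphaScreen luminescence read after one hour at 37 °C in darkness. Pin-transferred compounds met GST-Six1 and His-Eya2 protein (5X stock 250 nM/500 nM) plus glutathione donor and Ni-chelate acceptor beads (5X, 50 ug/mL).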
# Starred values were filed as active, the others as inactive; ? = inconclusive; nt = no result given; & = joins results of further samples; [ ] = another dose, or the depositor's remark.
SMILES,PINK1 modulator,CtBP-E1A blk,D2 PAM,Sfp PPTase inh,D2 agonist,TRPV1 PAM,Six1-Eya2 inh
Cc1ccccc1-n1c(C)c(C#N)c(=O)c(-[n+]2ccccc2)c1[S-],1.0%,-7,-8,-20%,-14,0,-9
O=C(C1CCN(S(=O)(=O)c2cccs2)CC1)N1CCN(c2ccccc2O)CC1,-1.2%,-4,16,nt,7.3,-11,0
COc1nc(=O)n(C2CCCO2)cc1C (stereo not given),1.1%,-15,9,nt,1.4,nt,13
O=C(C1CCN(C2CCN(Cc3ccc4cc(F)ccc4n3)CC2)CC1)N1CCCC1,0.1%,-1,-6,-5%,2.2,2,5
CCSc1nnc(NC(=O)CSc2nnc(CNC(=O)c3ccc(OC)c(OC)c3)o2)s1,0.0%,-27,23,-6%,1.2,12,-14
COCCC(=O)N1CCC(Oc2ccc(C(=O)N3C[C@@H](C)O[C@@H](C)C3)cc2)CC1,-1.4%,18,-2,20%,-0.2,-11,-19
CCN(C(=O)CSc1nc2ccccc2[nH]1)C1CCS(=O)(=O)C1 (stereo not given),-0.1%,nt,6,nt,-2.9,nt,3
CCOc1ccc(S(=O)(=O)Nc2ccccc2C(=O)N/N=C/c2c(OC)ccc3ccccc23)cc1,0.8%,4,-12,8%,0.1,-4,-3
CCOc1ccc(NC(=O)CN(c2cccc(C(F)(F)F)c2)S(C)(=O)=O)cc1,-2.6%[38.3 µM],2,2,17%,1.6,?,1
CCOC(=O)C1=CCC(c2cccc(Cl)c2)N(S(=O)(=O)c2ccc(C)cc2)C1 (stereo not given),6.3%,1,0,nt,-5.4,nt,1
CC(=O)c1ccc(OCc2cc(C(=O)N3CCN(C4CCCC4)C(=O)C3)no2)cc1,2.1%,6,12,nt,0.0,nt,1
CCCC(C(=O)NNC(=O)c1ccncc1)c1ccccc1 (stereo not given),-0.5%,-8,-3,nt,1.1,nt,-6
O=C(Nc1ncn[nH]1)c1ccc(Cl)c(S(=O)(=O)N2CCCCCC2)c1,1.1%[38.3 µM],-3,-5,16%,-2.4,-4,-2
O=C(Nc1ccccc1)C1=C[C@H](C2CC2)C[C@H](OCCCCO)O1,-0.8%,3,-9,0%,-3.4,4,3
Cc1c(CCC(=O)NCC(=O)NCC(=O)O)c(=O)oc2cc3oc4c(c3cc12)CCCC4,-0.2%,8,-4,-4%,-5.7,?,-2
N#CC1=C(SCC(=O)Nc2cccc3cccnc23)NC(=O)C(C#N)C12CCCCC2 (stereo not given),4.1%[38.3 µM],-5,0,7%,0.2,?,-2
COc1ccc(NC(=O)c2nc[nH]c2C(=O)NCC(=O)OC(C)(C)C)cc1,-0.5%,-20,1,3%,-0.1,-1,-12
CCOC(=O)C1CCCN(C(=O)c2cc3ccc(OC)cc3[nH]2)C1 (stereo not given),-0.6%,-1,-2,6%,-1.9,26,2
CC(=O)Nc1nnc(SCC(=O)Nc2nc(C)cs2)s1,-1.2%,11,-2,4%,0.7,5,6
CS(=O)(=O)Nc1ccc(C2=NN(C(=O)c3ccccc3)C(c3cccs3)C2)cc1 (stereo not given),-0.9%,-6,1,14%,0.2,2,-17
CC1(C)CC(=O)/C(=N/Nc2ccc(Cl)cc2)CO1,7.5%,0,-12,17%,-1.0,-10,22
O=C(CCCl)N1CCN(c2nc(-c3ccccc3)cs2)CC1,1.5%,nt,-1,-10%,2.7,23,-2
COc1cc(C2c3c(-c4ccccc4O)n[nH]c3C(=O)N2Cc2ccco2)cc(OC)c1OC (stereo not given),8.4%,-18,-8,-4%,-1.7,4,-2
C=Cn1cc(CNC[C@H]2O[C@@H](n3cnc4c(=O)[nH]c(N)nc43)[C@H](O)[C@@H]2O)c(C)n1,0.3%,-17,-1,nt,-2.3,nt,1
CCCn1c(N)c(C(=O)CSc2nnc(-c3cccs3)n2C2CC2)c(=O)[nH]c1=O,5.9%,-3,20,nt,48*,nt,-13
O=C(/C=C/c1cccc2ccccc12)c1ccncc1,-1.9%,0,4,25µM*,0.2,-14,-1
COCCNC(=O)c1ccc2c(c1)ncn2-c1cccc(C)c1,12%,-13,-10,5%,0.4,-3,3
CCOc1ccc(S(=O)(=O)/N=C(/c2ccccc2)N(C)C)cc1,0.0%,2,-10,17%,1.5,1,16
CCOc1ccc(NC(=O)CN2CCN(CC(=O)Nc3ccccc3OC)CC2)cc1,1.9%,nt,-7,1%,2.9,3,-2
CC(C)(C)NC(=O)C1(C)CCC(=O)N1CC(F)(F)F (stereo not given),2.4%,-20,-8,nt,-3.9,nt,50
COCCNC(=O)c1nn2cccnc2c1Cl,?,3,8,16%,-4.1,-2,2
O=C(Nc1ccc(Cl)cc1F)C1CCN(S(=O)(=O)c2cccnc2)CC1,-0.2%,8,?,1%,0.6,-24,5
Cc1ccccc1NC(=O)c1ccc2nc(N3CCOCC3)sc2c1,0.3%,-6,2,-5%,-3.4,-11,1
Cc1cc(NC(=O)CSc2nnc(-c3ccncc3)n2-c2ccc(F)cc2)no1,0.1%,7,-5,2%,-1.4,-13,-13
Cc1ccc2c(CC(=O)Nc3sccc3C(N)=O)coc2c1,2.7%,23,-4,9%,-2.2,?,17
CCCNC(=O)c1ccc(CNc2c(N3CCC(C(=O)OCC)CC3)c(=O)c2=O)cc1,-0.7%,-2,-18,22%,-1.4,-4,-3
Cc1nc([N+](=O)[O-])cn1CC(=O)NCCCO,-1.8%,-2,-17,7%,-1.0,-6,3
CN(C(=O)NC1CCCCC1)[C@H]1C[C@H]2c3[nH]c4ccccc4c3CCN2C(=O)[C@H]1CO,0.5%,-4,-1,nt,-11,nt,-2
O=C(Nc1cccc2cccnc12)c1csc(COCCO)n1,0.5%,?,-1,nt,2.7,nt,-7
CCCCC1Cc2[nH][nH]c(=O)c2C(c2ccc(F)cc2)O1 (stereo not given),5.7%,22,nt,nt,nt,nt,15
COC(=O)Cc1c(O)ccn(C2CC2)c1=O,-0.6%,-20,-3,11%,0.1,10,-9
O=C(CNC(=O)[C@@H]1Cc2ccccc2CN1)Nc1ccc2c(c1)OCO2,0.1%,-4,-15,-13%,-2.8,-13,0
CO/N=C(/CNC(=O)c1ccc(F)cc1)c1ccc(Cl)cc1,7.1%,-3,-9,16%,1.0,-15,9
COc1ccc(-c2cc3ncc(C(C)=O)c(C)n3n2)cc1,11%,nt,-4,14%,-5.2,4,-14
Cc1ccccc1/C(N)=N/OC(=O)c1cccs1,-2.4%,7,139*,8%,?,0,8
CC(O)(c1ccccc1)c1ccc2ccccc2n1 (stereo not given),11%,12,2,nt,0.8,nt,3
CCOc1ccc(C(=O)NC(C(=O)N2CCC2)C(C)C)cc1 (stereo not given),-6.3%,-16,8,nt,-2.5,-8,4
Cc1cc(/N=C/C=C2/N(C)c3ccccc3C2(C)C)n(CCC#N)n1,7.8%,-12,-11,nt,5.4,nt,-13
CSc1nn2c(C)c(C)c(C)nc2c1C#N,-0.3%,20,3,16%,0.7,-9,20
COc1ccccc1-c1cc(-c2ccc(C)cc2)nc(SCc2nnc(-c3ccccc3)o2)c1C#N,2.5%,0,-3,?,-3.5,19,16
# The list continues.
SMILES,PINK1 modulator,CtBP-E1A blk,D2 PAM,Sfp PPTase inh,D2 agonist,TRPV1 PAM,Six1-Eya2 inh
CC(CCc1ccccn1)C(=O)C(C)CCc1ccccn1 (stereo not given),0.9%,3,-4,nt,0.5,nt,4
CC(=O)Nc1ccc(CN2CCN(c3cccc(C(F)(F)F)c3)CC2)cc1,-1.9%[38.3 µM],-3,-10,-28%,-3.7,6,-3
Oc1ccccc1/C=N/N1CCN(c2ccccn2)CC1,0.7%,-13,-2,11%,-2.4,-5,-10
O=S(=O)(c1ccccc1)N1CCC(n2nnc3cc(F)ccc32)CC1,-0.2%[38.3 µM],2,-12,-7%,-1.8,-16,3
CCNc1nc(NCC)nc(C(=O)OCCO)n1,0.6%,-20,-4,20%,-0.5,-13,-22
Oc1c(C=Nc2ccc(Cl)cn2)sc2ccccc12,2.2%,0,-22,3%,2.0,3,-15
CSc1ccc(CCNC(=O)CN2C(=O)c3cccnc3Oc3ccc(C)cc32)cc1,0.4%&0.1%,-23,-4,9%,-2.0,4,-8
COCCNC(=O)[C@H]1C[C@@H]1[C@H](NP(=O)(c1ccccc1)c1ccccc1)c1ccccc1,-1.0%,5,-4,-13%&47%,1.3,6,7
Cn1cccc1-c1nc2ccc(NC(=O)c3ccco3)cc2[nH]1,0.4%,-24,-4,10%,1.0,0,-28
COc1ccc2c(c1)C(c1ccc(Cl)cc1)NC(=O)C2 (stereo not given),1.6%,3,-11,nt,-2.4,?,0
COc1ccc2cc3c(nc2c1)OCC3,3.8%,nt,-1,24%,-2.2,17,5
O=C(Nc1ccccc1N1CCCCC1)C1=COCCO1,1.3%,8,0,nt,-4.3,-7,0
N#Cc1sc(C(N)=O)c(-c2ccccc2)c1-c1ccccc1,9.3%,2,-2,14%,-1.8,-2,-3
O=C(NCc1ccccc1)c1cc(C2COCCN2S(=O)(=O)c2cccs2)on1 (stereo not given),2.0%,-1,-5,nt,-2.9,nt,4
COCCN1Cc2cccc(C(=O)NCc3ccc4c(c3)OCO4)c2C1=O,-3.0%,2,-18,-4%,-1.6,2,6
COCCCNC(=O)c1ccc(CS(=O)(=O)c2ccccc2C)o1,0.8%,10,-5,11%,0.3,19,11
COc1ccccc1OCCC(=O)OCC(=O)NCc1ccccc1,1.9%,2,-6,11%,-4.1,-4,-2
CCn1cc(/C=C/C(=O)Nc2ccn(Cc3c(F)c(F)cc(F)c3F)n2)cn1,-1.4%,0,-19,28µM*,-2.2,-1,-11
O=C(Nc1ccc(-c2n[nH]c(=S)o2)cc1)c1ccccc1Cl,1.5%,nt,-3,-3%,6.3,11,-7

# 3 entries out of the list above, sorted by the number in CtBP-E1A blk, falling.
Structure | CtBP-E1A blk
CC(=O)Nc1nnc(SCC(=O)Nc2nc(C)cs2)s1 | 11
N#CC1=C(SCC(=O)Nc2cccc3cccnc23)NC(=O)C(C#N)C12CCCCC2 (stereo not given) | -5
CCOc1ccc(C(=O)NC(C(=O)N2CCC2)C(C)C)cc1 (stereo not given) | -16

# Among those listed so far, 3 have a CF3 group:
SMILES,PINK1 modulator,CtBP-E1A blk,D2 PAM,Sfp PPTase inh,D2 agonist,TRPV1 PAM,Six1-Eya2 inh
CCOc1ccc(NC(=O)CN(c2cccc(C(F)(F)F)c2)S(C)(=O)=O)cc1,-2.6%[38.3 µM],2,2,17%,1.6,?,1
CC(C)(C)NC(=O)C1(C)CCC(=O)N1CC(F)(F)F (stereo not given),2.4%,-20,-8,nt,-3.9,nt,50
CC(=O)Nc1ccc(CN2CCN(c3cccc(C(F)(F)F)c3)CC2)cc1,-1.9%[38.3 µM],-3,-10,-28%,-3.7,6,-3
